# E coli growth = inhibitors of Escherichia coli growth; OD600, 23 h; active compounds read low; hit rate 0.21% among 330,000; OD600 absorbance (concentration not given with the values);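 active = OD600 absorbance below the run mean of sample wells minus 3.6 SD, in any replicate, cut at about 0.56 in these data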;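 also: stock transfer was 300 nL into about 60 µL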
# HNF4A DNA FP = change in binding of human HNF4 alpha to DNA; P41235; activity change, % at 10 µM; hit rate 0.3% among 360,000; HNF4a-FITC DNA binding, fluorescence polarization, 1 h; in the data active = activity change above about 30%, passing the limit was not always enough;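 also: controls were the assay level and a saturating level of protein; the project sought stronger binding though the title names inhibitors; some compounds called inactive have numbers as strong as hits; positive values seem to mean higher polarization but the record does not say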
# Target sequence (P41235 whole entry, looked up): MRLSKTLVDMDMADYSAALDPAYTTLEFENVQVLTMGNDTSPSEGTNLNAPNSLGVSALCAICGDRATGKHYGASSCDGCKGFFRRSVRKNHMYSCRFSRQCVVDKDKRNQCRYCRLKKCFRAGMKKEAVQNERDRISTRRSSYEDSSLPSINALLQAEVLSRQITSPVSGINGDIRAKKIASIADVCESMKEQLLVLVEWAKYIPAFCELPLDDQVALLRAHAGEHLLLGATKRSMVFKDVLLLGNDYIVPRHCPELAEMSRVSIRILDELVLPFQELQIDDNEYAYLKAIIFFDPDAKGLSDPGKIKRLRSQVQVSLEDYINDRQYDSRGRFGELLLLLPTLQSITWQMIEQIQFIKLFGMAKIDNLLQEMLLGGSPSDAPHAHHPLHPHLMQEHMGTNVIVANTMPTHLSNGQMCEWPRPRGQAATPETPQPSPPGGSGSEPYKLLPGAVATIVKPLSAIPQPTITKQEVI
# ALR H2O2 inh = inhibitors of human sulfhydryl oxidase ALR | purified ALR, DTT oxidation, H2O2 HRP-luminol luminescence | inhibition, % (concentration not given with the values) | P55789 | hit rate 3.8% among 290,000;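 active = mean and each replicate at 75% or more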;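 also: stock transfer was 7.5 nL into about 7.5 µL; 0% = neutral wells and 100% = wells with inactivated enzyme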
# LANA-H2B inh = blocks KSHV LANA binding to histone H2A/H2B. Q9QR71. hit rate 0.6% among 320,000. cell-free LANA-H2A/H2B peptide, fluorescence polarization. inhibition, % (no concentration beside the values); in the data active = inhibition mostly above about 10%, no sharp cut-off; inactive = mostly below about 6.7%;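 also: stock transfer was 7.5 nL into about 10 µL; 0% = median of vehicle wells and 100% = median of positive control wells; one replicate is shown; the record names a cut of 25% in any replicate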
# UCH37 inh = inhibitors of human deubiquitinating enzyme UCH37; AID 588478; Q9Y5K5; hit rate 0.33% among 330,000; inhibition, % (no concentration beside the values); purified proteasome/UCH37, Ub-AMC cleavage fluorescence;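 active = mean of two replicates above 20%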;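 also: 0% = compound-free wells with enzyme and 100% = wells lacking proteasome; stock transfer was 100 nL into about 20 µL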
#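 Signal – fluorescence, ex 355 nm, em 460 nm · System – Proteasome-bound UCH37 · Input – 0.15 nM proteasome as dispensed · Timing – 30 min preincubation with enzyme, 25 min cleavage at room temperature · Read-out basis – percent inhibition of cleavage signal versus uninhibited and no-proteasome wells · Medium – Tris-HCl pH 7.4 with ATP-MgCl2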
# FGF22 binding = FGF22 (human) thermal shift binding; hit rate 1.5% among 340,000; calls only at 9.99 µM; recombinant FGF22 thermal shift, SYPRO orange fluorescence; percent of sucrose octasulfate shift, DMSO zero; Q9HCT0;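 active = melting point raised past a set limit in the mean and every replicate; three in four hits are not shown here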
# Target sequence (Q9HCT0 whole entry, looked up): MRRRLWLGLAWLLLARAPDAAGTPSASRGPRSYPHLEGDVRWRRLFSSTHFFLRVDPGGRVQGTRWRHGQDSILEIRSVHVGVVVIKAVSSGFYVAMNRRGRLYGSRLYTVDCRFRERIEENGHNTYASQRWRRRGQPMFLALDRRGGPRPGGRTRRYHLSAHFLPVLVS
# Beta2AR agonist = human beta-2 adrenergic receptor agonism by FAP; P07550; Am2.2-beta2AR cells, FAP receptor internalization, flow cytometry; reference of the scale not given here; response, % (no concentration beside the values); hit rate 0.43% among 340,000;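 active = response above a set limit, near 3 SD of response in nonfluorescent compounds, cut at about 42% in these data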;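 also: stock transfer was 100 nL into about 11 µL; a reference agonist was the positive control; negative values mostly stem from fluorescent compounds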
# Target sequence (P07550 whole entry, looked up): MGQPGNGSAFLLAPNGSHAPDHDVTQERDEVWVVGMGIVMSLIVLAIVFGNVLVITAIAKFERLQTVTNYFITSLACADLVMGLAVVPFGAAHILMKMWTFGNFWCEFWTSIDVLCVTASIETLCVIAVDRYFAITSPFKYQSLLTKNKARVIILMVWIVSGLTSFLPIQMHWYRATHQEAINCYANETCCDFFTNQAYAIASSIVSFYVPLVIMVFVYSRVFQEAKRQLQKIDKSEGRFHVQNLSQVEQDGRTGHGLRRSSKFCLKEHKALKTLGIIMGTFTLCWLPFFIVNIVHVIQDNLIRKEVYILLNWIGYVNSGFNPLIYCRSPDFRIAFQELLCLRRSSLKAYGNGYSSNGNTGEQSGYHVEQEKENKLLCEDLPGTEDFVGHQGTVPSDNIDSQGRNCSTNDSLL
# * marks the source's active call; other numbers are inactive results; i = inactive; x = not tested or not shown.
SMILES,E coli growth,HNF4A DNA FP,ALR H2O2 inh,LANA-H2B inh,UCH37 inh,FGF22 binding,Beta2AR agonist
N#Cc1ccc(C(=O)OCC(=O)N2CCCCCC2)cc1,0.651,-0.4,x,x,1.1,i,0.7
O=C(CN1C(=O)CCSc2ccccc21)Nc1ccccc1,0.741,-7.0,x,1.8,1.4,x,5.1
COC(=O)[C@@]12CCCCN1[C@H](c1ccc(-c3ccc(C(C)=O)cc3)cc1)[C@@H]1C(=O)N(C)C(=O)[C@@H]12,x,-2.2,-8.8,-4.7,x,i,18.5
COc1cccc(CN2CC(C(=O)NC3CCC(O)CC3)CCC2=O)c1 (stereo unspecified),0.658,0.3,1.0,-4.5,-1.7,i,5.3
CC(=O)c1cccc(NC(=O)CC2SC(N3CCCCC3)=NC2=O)c1 (stereo unspecified),0.714,-0.4,-9.0,-2.2,0.0,x,3.9
O=S(=O)(c1ccc2c(c1)nc1n2CCC1)N1CCOCC1,0.664,2.4,-9.9,1.5,1.5,x,4.4
COc1cccc(C(c2sc3nc(C)nn3c2O)N2CCC3(CC2)OCCO3)c1 (stereo unspecified),0.704,0.2,6.8,-1.3,2.3,i,-16.6
CCOc1ccc(NC(=O)CSc2nnc(CNC(=O)c3cccs3)o2)cc1,0.617,-3.2,-66.3,4.2,1.7,i,3.5
Cc1sc2ncnc(N[C@@H](Cc3c[nH]c4ccccc34)C(=O)O)c2c1C,x,2.2,-9.5,-2.4,6.1,x,-2.5
Nc1nc(SCC(=O)N2CCOCC2)[nH]c(=O)c1-c1ccccc1,0.681,-2.6,1.3,-2.8,2.5,i,4.5
Cn1c(=O)c2c(ncn2Cc2ccccc2)n(C)c1=O,0.662,-1.8,x,-13.0,4.7,i,8.3
O=C(Cc1ccc(Br)cc1)NCc1ccccc1,0.659,-0.2,-1.7,4.4,4.4,i,2.0
CCCS(=O)(=O)N1CCC(C(=O)NCCc2ccc(C)cc2)CC1,0.759,-2.9,5.0,0.8,-5.2,x,3.3
COc1ccc(OCC(=O)Nc2nonc2NC(=O)COc2ccc(OC)cc2)cc1,0.726,-0.9,-1.1,1.3,2.0,i,6.7
COc1ccc(NC(=O)Cn2c(=O)n(CC(=O)NCc3ccco3)c(=O)c3ccccc32)cc1OC,0.754,-2.4,x,0.2,2.7,x,-0.8
Cc1ccccc1NC(=O)NCCCN1CCN(c2ccccc2)CC1,0.675,-1.1,x,-8.7,2.4,x,4.5
Cc1cc(C)cc(NS(=O)(=O)Cc2ccccc2)c1,0.632,-0.2,-4.1,1.1,0.4,i,-2.0
CCN(CC)C(=O)Cn1cc(C(=O)C(=O)NCc2ccco2)c2ccccc21,0.727,1.6,-24.4,2.5,4.9,i,-3.3
COC(=O)C(Cc1ccccc1)NC(=O)c1cccc(S(=O)(=O)N(C)C)c1 (stereo unspecified),0.695,3.5,-3.5,-5.4,2.4,i,6.8
CC(C)n1nc(C(=O)Nc2ccc(-n3cnnn3)cc2)c2ccccc2c1=O,0.715,-0.9,-1.5,2.7,-2.4,i,1.3
C=CCNC(=O)CC1Nc2c3ccccc3nc(=S)n2C1=O (stereo unspecified),0.726,-1.6,94.9*,-0.1,0.0,i,-1.4
CCOC(=O)C1(Cc2ccccc2C)CCCN(C(=O)c2ccnn2C)C1 (stereo unspecified),0.677,-0.8,-12.8,2.4,-0.9,x,4.7
Cc1occc1-c1nnc(SCC(=O)NCC2CCCO2)n1C (stereo unspecified),0.761,5.6,-0.9,-7.7,2.1,x,-6.7
COC(=O)c1sc(=S)sc1C(=O)OC,0.677,-4.5,-1.9,-13.3,14.7,i,4.1
COc1ccc(-c2cc(C(=O)N3CCN(c4ccccc4F)CC3)c3ccccc3n2)c(OC)c1,0.706,-0.5,-3.0,-5.7,-31.8,i,3.4
CCN(c1cccc(C)c1)S(=O)(=O)c1cc2c3c(c1)CCC(=O)N3CCC2,0.636,1.0,x,0.8,0.9,i,-0.2
Cc1ccc(C(=O)Nc2nnc(-c3ccc(C(C)(C)C)cc3)s2)cc1,0.749,1.8,-2.6,-0.1,-6.2,x,-6.0
CCCC(C)c1nnc(NC(=O)CS(=O)(=O)Cc2ccccc2)s1 (stereo unspecified),0.668,-1.5,49.2,30.4*,1.6,x,7.6
CCOc1cc(CN2CCCC(C(=O)c3cccc(C(F)(F)F)c3)C2)ccc1O (stereo unspecified),0.665,-6.4,18.6,3.6,1.6,i,5.3
CC1CCCC(NC(=S)NC(=O)c2cncc(Br)c2)C1C (stereo unspecified),0.677,0.4,14.3,1.6,2.9,i,-1.4
COCCn1c(-c2cccc(Br)c2)nc2c(c(=O)c3ccccc3n2C)c1=O,0.68,4.5,-22.9,2.1,0.7,i,-5.2
Cc1ccc(Cl)cc1NC(=S)N(CCN(C)C)Cc1cccs1,0.678,-2.0,-3.5,4.1,-1.8,i,3.8
C=CCn1c(SCC(=O)c2c(N)n(C)c(=O)n(C)c2=O)nnc1-c1ccncc1,0.666,4.1,-13.1,8.4,-1.1,i,0.0
O=C(O)C(=O)/C(=C\c1cccc2ccccc12)c1ccc2ccccc2n1,0.765,19.9,-5.9,7.3,-4.2,x,-0.9
CCCNC(=O)Cn1nc([N+](=O)[O-])c([N+](=O)[O-])c1C,0.678,2.5,-76.1,-0.8,5.0,x,-3.8
O[C@@H]1[C@@H](O)C=C2CCN3Cc4cc5c(cc4[C@H]1C23)OCO5 (stereo partly specified),x,1.6,12.9,2.1,1.3,i,60.7*
O=C(N/N=C/c1cc(Br)cc(Cl)c1O)c1ccc2c(c1)OCO2,x,16.7,-6.0,1.1,x,i,6.8
CN(C(=O)c1ccccc1C(=O)OCC(=O)Nc1ccccc1)c1ccccc1,0.672,2.2,-1.8,-0.9,0.7,i,-2.4
O=C(COC(=O)CCc1ccc(S(=O)(=O)N2CCOCC2)cc1)NCc1ccc(Cl)cc1,0.693,-2.9,1.2,4.2,-0.9,i,2.4
Cc1nn(CC(=O)Nc2ccc(S(N)(=O)=O)cc2)c(=O)c2ccccc12,0.689,3.8,-4.1,-1.5,2.7,i,-2.9
CCCc1nc(N2CCN(C)CC2)c2sc(=S)n(-c3ccccc3)c2n1,0.749,-0.8,28.1,-4.1,7.2,x,10.4
O=C1CCC(=O)N1CCCCCc1nc(-c2ccccc2)no1,0.682,3.6,x,-2.7,3.7,x,3.9
COc1cccc(C(=O)COC(=O)COc2c(C)cc(C)cc2C)c1,0.683,2.0,-2.8,-3.3,3.1,i,-4.8
Cc1cccc(C)c1-n1nnnc1C1(Nc2ccccc2)CCCCC1,0.737,-1.4,-3.7,-1.6,2.1,x,2.3
CCCn1c(=O)c(C(=O)Nc2c(C)n(C)n(-c3ccccc3)c2=O)c(O)c2ccccc21,0.681,2.8,-8.4,2.6,-1.3,x,-5.2
Clc1ccc(-c2nnc3n2CCCCS3)cc1,0.67,1.2,x,0.8,1.9,x,-4.5
O=C(CN1CCOc2ccccc21)N1CCCC1,0.708,2.5,29.9,-0.3,0.7,i,3.3
O=C(CS(=O)(=O)c1ccccc1)Nc1ccc(S(=O)(=O)Nc2ccccn2)cc1,0.663,-2.1,2.1,-1.4,-0.4,i,3.5
CCOC(=O)C1(Cc2ccccc2Cl)CCN(S(C)(=O)=O)CC1,0.658,4.1,-2.8,2.8,1.0,i,-0.2
CN1CCN(c2ccc(NC(=O)c3ccc(C#N)cc3F)cc2Cl)CC1,x,3.4,-0.5,2.4,x,i,0.0
O=C(O)CNC(=O)CC1S/C(=N/N=C2\CSC(=O)N2)NC1=O (stereo unspecified),x,3.3,32.7,3.5,x,i,-13.5
CCN1C(=O)[C@H]2[C@@H](c3ccc(C)cc3)N3C(=O)N(c4cccc(Br)c4)C(=O)[C@@]3(Cc3ccccc3)[C@H]2C1=O,x,2.8,-11.9,4.3,0.5,i,-3.0
Cc1noc(C)c1S(=O)(=O)N1CCCC(C(=O)NC2CCCCC2)C1 (stereo unspecified),0.659,1.7,-12.3,5.4,0.1,i,-2.1
Cc1ccc(-n2nc3c(c2NC(=O)c2ccccc2Br)CS(=O)C3)cc1 (stereo unspecified),0.726,1.6,-10.9,0.0,7.1,i,-4.7
CCCCC(=O)Nc1nnc(S(=O)(=O)N(C)Cc2ccco2)s1,0.635,5.0,1.3,-4.3,0.3,i,-3.7
O=C(NCc1ccc2c(c1)OCO2)c1cc([N+](=O)[O-])ccc1N1CCOCC1,0.686,-1.6,-3.3,2.4,7.1,x,-6.0
COc1ccc(N2C(=O)CC(N3CCN(C4CCc5ccccc5C4)CC3)C2=O)cc1 (stereo unspecified),0.706,-0.8,-15.5,-1.7,-0.3,x,-6.5
Fc1ccc(-c2nnc(CN3CCC(c4nc5ccccc5s4)CC3)o2)cc1,0.739,0.3,x,x,4.9,x,-7.5
O=C(Nc1ccc(N2CCOCC2)cc1)C1(S(=O)(=O)c2ccccc2)CC1,0.688,-3.5,73.7,1.9,1.4,x,1.9
CCC(=O)N1CCN(c2nc(C)nc3sc(C)c(C)c23)CC1,0.71,-0.3,-17.2,3.0,5.3,i,-1.8
# (more compounds)
SMILES,E coli growth,HNF4A DNA FP,ALR H2O2 inh,LANA-H2B inh,UCH37 inh,FGF22 binding,Beta2AR agonist
CCN(Cc1nc2ccccc2c(=O)[nH]1)C(=O)COc1ccccc1Cc1ccccc1,0.692,23.5,x,x,1.7,i,9.2
O=C1NC2(CCCCC2)Oc2ccccc21,0.762,2.4,1.4,-2.2,-3.2,x,3.0
CSc1ccccc1C(=O)N1CCOCC1,0.696,-3.4,1.5,-1.8,0.3,x,2.1
CCOc1ccc(OCC)c(S(=O)(=O)n2ccnc2C)c1,0.657,47.8*,x,4.9,1.2,i,-6.9
CCCCNC(=O)c1ccc2c(=O)n(CCCOCC)c(=S)[nH]c2c1,0.703,1.8,-3.6,2.6,5.0,x,-7.7
CS(=O)(=O)N(CCc1ccccc1)CC(=O)NCc1ccncc1,0.709,0.2,-1.6,-7.2,2.9,x,-9.3
COc1ccc2c(=O)c(-c3ccc4c(c3)OCO4)coc2c1,0.678,-3.5,x,-3.0,-3.2,x,2.8
COc1ccc(CNC(=O)CCCn2c(SCC#N)nc3cc4c(cc3c2=O)OCO4)cc1,0.749,1.8,-2.2,0.9,0.7,x,3.3
COc1ccc(/C=C/C(=O)O)cc1S(=O)(=O)N1CCCc2ccccc21,0.669,-5.6,-5.6,-0.4,2.2,i,2.3
COc1ccc(N2CCN(Cc3nc4c(c(=O)n(C)c(=O)n4C)n3C(C)C(C)=O)CC2)cc1 (stereo unspecified),0.629,1.1,88.5*,-3.7,1.1,x,-2.2
CCC(=O)c1ccc(OCC(=O)Nc2ccccc2N2CCOCC2)cc1,0.692,1.5,-1.0,-0.7,-0.1,i,-0.9
O=C1NC(=Nc2ccccc2)c2c1cccc2[N+](=O)[O-],0.693,1.2,x,4.2,7.2,x,5.6
CC1=C(C#N)C(NC(=O)c2ccco2)(C(F)(F)F)C(=O)N1 (stereo unspecified),0.68,-2.0,2.1,-2.5,-0.5,i,3.4
CCOC(=O)C1=C(C)NC(=O)NC1c1ccccc1OCc1c(F)cccc1Cl (stereo unspecified),0.72,-3.9,-3.6,0.6,6.7,x,-1.9
Cc1cc(C)c(NC(=O)c2ccccc2N(C)S(C)(=O)=O)c(C)c1,0.716,1.0,-1.4,-2.4,5.0,i,6.9
CN1CCN(CC(=O)NC(=O)NC2CCCCC2)CC1,0.659,2.0,-1.1,-1.9,-0.3,i,-4.2
O=C1c2cccc3cccc(c23)C(=O)N1CCc1ccccc1,0.682,0.1,-2.3,1.7,-24.1,i,-5.6
CC(C)(CNC(=O)Cc1ccc(Cl)cc1Cl)N1CCOCC1,x,0.2,-2.4,1.5,x,x,-2.8
O=C(Nc1ccn(CCCNCCCN2CCCC2=O)c(=O)n1)OCc1ccccc1,x,-0.9,x,x,x,i,-3.2

# Assay outcomes from PubChem BioAssay.

# Not all compounds are listed, so the mix of outcomes need not match the whole.
